# FEN1 inhibitor – human FEN1 inhibition; Potency, µM (series often up to 114 µM), without a hit: top-dose activity change, negative = inhibition, usual class: inhibitors; Recombinant FEN1 flap cleavage, fluorescence, 15 min; hit rate 0.35% among 390,000; active = well fitted inhibition curve with a large enough effect; note: nearly all actives have a fitted effect of over 65% in size
#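 Nuclease activity of 10 nM FEN1 was measured after 15 min of room-temperature exposure to titrated compounds, by adding 50 nM flap substrate and reading plates at 0 and 15 min.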
# The depositor's hits bear a star. % is set by controls: 0 for no effect and ±100 for the full control effect; potency is the fitted concentration of half-maximal effect. These rows are one share of the data, and most or all hits are left out here.
SMILES,FEN1 inhibitor
COc1ccccc1N1CCN(Cc2cc(=O)n3ccsc3n2)CC1,-2%
O=S(=O)(/N=C(\[O-])C[n+]1ccccc1)c1ccc(Cl)cc1,1%
O=c1[nH]c2ccccc2c(=O)n1Cc1ccccc1,11%
Cc1ccccc1NC(=O)Cc1nnc(SCC(=O)Nc2ccccc2)n1C,0%
CCOC(=O)c1nnn(CC(=O)N2N=C(c3ccc(Cl)cc3)CC2c2ccccc2)c1C(=O)OCC (stereo not given),4%
Cc1nnc(SCC(=O)NC2CC2)n1CCc1ccccc1,-5%
CCP(=O)(c1ccccc1)C(C)(C)O (stereo not given),0%
CCCCOC(=O)C1C2C=C[C@]3(CN(CCCOC)C(=O)[C@H]13)O2 (stereo not given in full),-11%
Cc1ccccc1NS(=O)(=O)c1nnc(NC(=O)c2ccc(Br)cc2)s1,-9%
CC1CCc2c(sc(NC(=O)Cn3nc(C(=O)O)c4ccccc4c3=O)c2C#N)C1 (stereo not given),0%
O=C(NC1CCCC1)C1CCCN(S(=O)(=O)c2cnc[nH]2)C1 (stereo not given),-1%
CCc1ccc(NC(=O)c2cc(S(=O)(=O)NC3CCCCCC3)ccc2F)cc1,-3%
O=C(NCCS(=O)(=O)NCc1ccc2c(c1)OCO2)c1ccccc1,-11%

# 3 compounds from above, sorted by count of non-hydrogen atoms, falling:
SMILES,FEN1 inhibitor
CCOC(=O)c1nnn(CC(=O)N2N=C(c3ccc(Cl)cc3)CC2c2ccccc2)c1C(=O)OCC (stereo not given),4%
Cc1ccccc1NC(=O)Cc1nnc(SCC(=O)Nc2ccccc2)n1C,0%
O=C(NCCS(=O)(=O)NCc1ccc2c(c1)OCO2)c1ccccc1,-11%

# An excerpt from above in order of the FEN1 inhibitor value, highest first:
canonical_smiles,FEN1 inhibitor
CCP(=O)(c1ccccc1)C(C)(C)O (stereo not given),0%
COc1ccccc1N1CCN(Cc2cc(=O)n3ccsc3n2)CC1,-2%
O=C(NCCS(=O)(=O)NCc1ccc2c(c1)OCO2)c1ccccc1,-11%

# Random excerpt: 2 compounds from above, in no set order.
SMILES,FEN1 inhibitor
CC1CCc2c(sc(NC(=O)Cn3nc(C(=O)O)c4ccccc4c3=O)c2C#N)C1 (stereo not given),0%
COc1ccccc1N1CCN(Cc2cc(=O)n3ccsc3n2)CC1,-2%

# High-throughput results from PubChem BioAssay.
